Screening data (PubChem BioAssay)
Mtb H37Rv = M. tuberculosis H37Rv growth inhibitors, H37Rv strain (AID 1626); M. tuberculosis H37Rv growth inhibition; higher % means a stronger effect; 0.95% of 220,000 active; one-dose inhibition, % at 10 µM; IC50 in µM for titrated hits;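 active = confirmed in a dose series; inconclusive = inhibition above 80% but not taken into the dose series; inactive = below 80% or under 30% at every dose of the series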;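 also: bacteria incubated seven days before Alamar blue readout; 0% = bacteria only wells and 100% = bacteria with antibiotic wells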
YopH PTP inh = YopH (Yersinia) phosphatase inhibition. 0.16% of 140,000 active. AID 898. inhibition, %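 (about 10 µM by stock and volumes)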. fluorescence Ex485/Em525;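 active = inhibition of 50% or more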;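 also: controls were vehicle for no effect and minimum signal wells for full effect; inactives centre near -20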
Mtb betalactam = beta-lactam sensitization of Mtb H37Rv; M. tuberculosis H37Rv growth with meropenem, percent inhibition; hits of this screen are not shown here; inhibition, % at 25 µM; 0.27% of 330,000 active;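 active = about 74% or more and at least 40 points above the plate without the antibiotic, then above 30% in a dose series; inconclusive = first-round hits that could not be retested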;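 also: growth measured after seven days incubation then overnight dye step; 0% = bacteria only wells and 100% = bacteria with antibiotic; twin plates without the antibiotic show which effects depend on it; some results filed as inactive read as strong as hits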
RecA splice inh = blocks M. tuberculosis RecA intein splicing; cell-free RecA intein splicing, fluorescence; inhibition, %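 (about 9 µM by stock and volumes)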; 0.75% of 290,000 active; in the data active = inhibition above about 30%; inconclusive = no clear call, values can overlap the other calls;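 also: 0% = vehicle wells and 100% = reference inhibitor control wells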
Target sequence (P9WHJ3 whole entry, looked up, canonical isoform): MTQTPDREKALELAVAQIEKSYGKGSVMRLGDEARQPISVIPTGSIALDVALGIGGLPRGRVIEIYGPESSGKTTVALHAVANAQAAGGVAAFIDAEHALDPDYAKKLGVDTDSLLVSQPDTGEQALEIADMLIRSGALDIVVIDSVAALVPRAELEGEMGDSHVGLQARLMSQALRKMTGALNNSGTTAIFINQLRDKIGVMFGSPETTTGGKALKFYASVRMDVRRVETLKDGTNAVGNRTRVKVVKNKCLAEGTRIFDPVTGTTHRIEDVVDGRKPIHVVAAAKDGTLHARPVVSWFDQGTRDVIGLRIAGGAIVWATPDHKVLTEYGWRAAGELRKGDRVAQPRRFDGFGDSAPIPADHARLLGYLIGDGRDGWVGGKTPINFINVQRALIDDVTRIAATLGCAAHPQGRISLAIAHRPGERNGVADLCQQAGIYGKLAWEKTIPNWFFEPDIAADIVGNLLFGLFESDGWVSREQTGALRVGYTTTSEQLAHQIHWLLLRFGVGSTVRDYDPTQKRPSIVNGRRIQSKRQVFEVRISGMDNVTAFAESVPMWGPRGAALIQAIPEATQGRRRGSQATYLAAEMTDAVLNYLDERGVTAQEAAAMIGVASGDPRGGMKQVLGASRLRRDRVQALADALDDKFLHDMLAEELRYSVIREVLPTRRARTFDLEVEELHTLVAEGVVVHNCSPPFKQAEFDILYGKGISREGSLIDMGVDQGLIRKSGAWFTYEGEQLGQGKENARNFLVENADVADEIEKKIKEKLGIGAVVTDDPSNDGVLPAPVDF
Arbovirus anti = antivirals against arbovirus infection. inhibition, % at 10 µM. AID 1251. arbovirus infection cell-based antiviral screen. 0.37% of 200,000 active;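 active = inhibition from about 30%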;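 also: bluetongue infection of BSR cells; cell survival read as ATP light after 72 h; 0% = infected wells without compound and 100% = uninfected wells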
Arbovirus anti repeat = second read-out of Arbovirus anti, no call of its own (marks repeat the call); inhibition, %; measured here: 10K subset replicate screen; many hits read low in the repeat;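 first of two repeat runs on a subset; 0% = infected and 100% = uninfected wells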
An asterisk follows results filed as active; ? = inconclusive; . = not tested or not shown. Some of the compounds tested. The share of hits here may be higher or lower than overall.

SMILES	Mtb H37Rv	YopH PTP inh	Mtb betalactam	RecA splice inh	Arbovirus anti	others
CCN(c1ccccc1)S(=O)(=O)c1ccc(Cl)c(NC(=O)COC(=O)c2ccc[n+]([O-])c2)c1	5%	.	-5	-0.2	-6
COc1cc(/C=N/NS(=O)(=O)c2ccccc2)c(OC)c(OC)c1	.	.	3	-5.5	.
CCN(CC)C(=O)CN(c1cccc(OC)c1)S(=O)(=O)c1ccc(C)cc1	-11%	-21	-3	-1.7	0
O=C(COc1ccc2c(c1)OCO2)Nc1ccccc1C(F)(F)F	-6%	.	-3	1.2	1
CN1CCN(C(CNS(=O)(=O)c2ccc(Cl)cc2)c2cccnc2)CC1 (stereo not drawn)	-6%	-7	-13	2.5	5
CCCCCC(=O)c1c(C)[nH]c(C(=O)OCC)c1C	7%	-34	5	0.5	-14
CNC(=S)N1CC2CC(C1)c1cccc(=O)n1C2 (stereo not drawn)	-9%	.	-1	-0.6	16
Cc1cc(C(=O)C(=O)N(C)C)c(C)n1-c1ccc(Cl)c(Cl)c1	8%	.	-7	2.1	4
CCOC(=O)c1cccnc1SC(CC)C(=O)N1CCOCC1 (stereo not drawn)	-6%	-28	-10	-4.2	5
CC(NC(=O)CN1CCC(C(N)=O)CC1)c1ccccc1 (stereo not drawn)	-5%	-49	-12	0.7	3
Cc1ccc(-n2nnc3c(=O)n(CC(N)=O)cnc32)cc1	.	.	-9	-1.1	.
Cc1cccc(N2CC(C(=O)Nc3ccc(S(=O)(=O)N4CCCCC4)cc3)CC2=O)c1C (stereo not drawn)	.	.	0	-2.0	.
COc1ccc(CCN(C(=O)c2ccc(F)cc2)C2=CC3CCC(C2)N3C)cc1OC (stereo not drawn)	-14%	.	-11	0.5	.
c1ccc(-c2nnc(-c3ccco3)n2-c2ccccc2)cc1	-5%	-15	-11	0.1	-4
CCCOc1ccc(C(=O)Nc2ccc(S(=O)(=O)NC3=NCCCCC3)cc2)cc1	.	.	-6	1.7	.
Cc1ccc(NC(=O)C2CC2C)c(Cl)c1 (stereo not drawn)	-4%	.	-3	-1.0	-5
O=C(CNC(=O)c1ccc(Cl)cc1)NCCCn1ccnc1	-7%	-47	-15	.	7
COC(=O)/C(=C\c1cccnc1)NC(=O)c1ccc(OCc2ccccc2)cc1	.	.	6	-3.0	.
CSCCC(NS(=O)(=O)c1ccc(Cl)cc1)C(=O)OCC(=O)NC12CC3CC(CC(C3)C1)C2 (stereo not drawn)	-3%	-11	-9	1.7	-5
CSCc1cc(N2CCOCC2)nc(-c2ccccc2)n1	-5%	.	-1	2.2	16
O=C(CNc1ccc2ccccc2c1)N/N=C/C=C/c1cccc([N+](=O)[O-])c1	?	-18	94	2.5	-17
N=C1/C(=C\c2ccc(OC(=O)c3ccco3)cc2)C(=O)N=C2SC(N3CCCCC3)=NN12	.	.	99	11	.
O=C(c1ccc(SCc2ccco2)c([N+](=O)[O-])c1)N1CCOCC1	-8%	.	-6	-3.1	1
COc1ccc(OC)c2[nH]c(=O)c(CCNC(=O)c3ccc(Br)o3)cc12	7%	-19	16	2.0	-1
CCN(CC)C(=O)Cn1cc(C(=O)C(=O)NCc2ccco2)c2ccccc21	10%	.	1	-0.4	17
(cont.)
SMILES	Mtb H37Rv	YopH PTP inh	Mtb betalactam	RecA splice inh	Arbovirus anti	others
CCc1ccc(-c2nn[nH]n2)cc1	-7%	-24	-1	-1.6	2
CCOC(=O)CNC(=O)CSc1nc2cccnc2n1C	-2%	-10	-1	0.3	8
Cc1cc(C)c(C)c(S(=O)(=O)N2CCN(C(=O)C3CSC4(C)CCC(=O)N34)CC2)c1C (stereo not drawn)	.	.	-19	-3.2	.
CNc1ccc2oc(C[C@H]3O[C@@]4(CC[C@H]3C)O[C@H]([C@H](C)C(=O)c3ccc[nH]3)[C@H](C)C[C@H]4C)nc2c1C(=O)O	?	.	97	-39	.
O=C1N=C2SCCN2/C1=C\c1ccc(Cl)cc1	5%	-18	8	1.1	2
Cn1c(C(=O)O)cc2c(=O)n3ccccc3nc21	-14%	.	-8	-416	.
CCOc1ccc(CN2CCNC(=O)C2CC(=O)NCCCn2ccnc2)cc1 (stereo not drawn)	6%	.	8	-0.4	4
Cc1nn(Cc2ccccc2)c(Cl)c1C(=O)NCc1ccc(C)n1C	-12%	-34	-12	6.2	9
CCOc1ccc(-n2c(=S)sc3c(=O)[nH]c(SCC(=O)NC(C)CC)nc32)cc1 (stereo not drawn)	0%	-10	9	0.1	7
NNC(=O)c1nn(-c2ccc(Cl)cc2)ccc1=O	-9%	-10	-15	-3.7	0
Cc1cc(C)c(OCCCCCn2ccnc2)c(C)c1	.	.	80	-1.5	.
O=C1NC2(CCCCC2)C(=O)N1CC(=O)N(Cc1ccccc1)c1ccccc1	.	.	-9	9.3	.
OCC(O)/C=N/Nc1nc(Nc2ccccc2)nc(Nc2ccccc2)n1 (stereo not drawn)	.	.	94	3.6	.
O=C(N1CCN(c2ccccc2)CC1)C(F)(F)C(F)F	-1%	-18	2	-0.6	-2
Cc1nnc2ccc(-c3cccc(C(F)(F)F)c3)nn12	-9%	.	2	0.4	.
CCOC(=O)c1ccc(NC(=O)CSCCC(=O)O)cc1	-6%	.	15	-0.5	2
Cc1cc(C)cc(N2C(=O)c3nccnc3C2=O)c1	-9%	-20	?	1.4	0
C#CCN1C(=O)C(O)(CC(=O)c2ccc3c(c2)OCCO3)c2ccccc21 (stereo not drawn)	-11%	-51	4	.	-10	Arbovirus anti repeat=-11
CC(C)C(=O)Nc1nnc(S(=O)(=O)N2CCCCCC2)s1	.	.	1	-1.2	.
COCCCn1c(=O)c2ccccc2n(Cc2ccccc2C)c1=O	.	.	-5	-0.4	.
CCCCc1nnc(NC(=O)C2CCN(c3ncnc4sc(C)c(C)c34)CC2)s1	.	.	-10	-1.3	.
Cc1ccccc1NC(=O)COc1cccc2c1CCNC2=O	.	.	-2	-0.8	.
COC(=O)c1sc(N)c(C(=O)OC)c1CSc1nc2sc3c(c2c(=O)n1C)CCC3	-10%	-34	-9	6.3	-1
CC(C)n1c(SCc2ccccc2F)nc2c1c(=O)n(C)c(=O)n2C	9%	.	-3	5.9	27	Arbovirus anti repeat=5
COc1cc(C2C(C#N)=C(SC)NC3=C2C(=O)CCC3)ccc1O (stereo not drawn)	-2%	.	-5	-6.2	.
(more compounds)
SMILES	Mtb H37Rv	YopH PTP inh	Mtb betalactam	RecA splice inh	Arbovirus anti	others
COc1ccc(NC(C)C(=O)N/N=C/c2c(O)ccc3ccccc23)cc1 (stereo not drawn)	.	.	12	0.4	.
NC(=O)C1CCN(C(=O)c2ccc3nc(-c4ccccc4)c(-c4ccccc4)nc3c2)CC1	.	.	3	0.0	.
COc1ccc(OCC(O)CNc2ccc(Br)cc2)cc1 (stereo not drawn)	20%	-14	8	2.6	11
COc1cccc(NC(=O)C2CCN(S(=O)(=O)c3ccc4[nH]c(=O)ccc4c3)CC2)c1	.	.	12	-1.9	.
CC(NC(=O)c1ccncc1)c1ccc(Br)cc1 (stereo not drawn)	.	.	8	0.0	.
COc1cccc(NS(=O)(=O)c2ccc3[nH]cc(C(=O)NCCCOC(C)C)c(=O)c3c2)c1	0%	-37	41	-1.9	6
COc1ccc(COC(=O)c2ccc(N3CCCC3=O)cc2)cc1F	-12%	-36	6	-2.1	6
COc1ccc(CCNC(=O)Cc2ccc3c(c2)OCO3)cc1OC	-13%	-45	?	-2.2	-9
c1cncc(CN=C2Nc3ccccc3CS2)c1	3%	.	-7	1.9	-2
CN(CC(=O)NCc1cccnc1)S(=O)(=O)c1ccc(F)cc1	.	.	-3	-2.5	.
Cc1cc(Cl)nc(SCC(=O)c2ccccc2)n1	.	.	-3	2.8	.
N=c1sccn1CC(=O)Nc1ccc(Cl)c(S(=O)(=O)N2CCOCC2)c1	0%	1	-9	-1.4	-1
COC(=O)/C(=C1\Oc2ccc(C(C)(C)C)cc2S1)C(F)(F)F	1%	-9	6	-0.6	8
O=C(Nc1cccc(O)c1)c1cc(-c2ccc3c(c2)OCO3)on1	.	.	16	1.6	.
COc1cccc(NC(=O)CSc2nc3ccccc3c3nc4ccccc4n23)c1	-5%	-14	1	-0.5	-9
O=C(CN1CCN(c2ccccn2)CC1)Nc1ccccc1Br	.	.	-2	5.0	.
O=[N+]([O-])c1cnc(Nc2ccc(Cl)cn2)c([N+](=O)[O-])c1	.	.	99	11	.
COCCCn1c(C(=O)NCCN2CCOCC2)cc2c(=O)n3ccccc3nc21	.	.	-1	-390	.
O=C(COc1ccccc1)Nc1ccccc1F	.	.	3	0.9	.
CSc1ccc(OC2CCCCC2NS(=O)(=O)c2ccc(Cl)cc2)cc1 (stereo not drawn)	-6%	-23	3	10.0	-17
Cc1cccc(-c2noc(-c3ccno3)n2)c1	-1%	.	-3	1.9	.
Cc1ccc(C(=O)N2CCOCC2)cc1Cl	-2%	-37	-5	-0.2	8
Cc1ccc(/C=N/NC(=O)c2csc3c2CCCC3)cc1	10%	8	15	6.7	1
COc1ccc([N+](=O)[O-])cc1NCc1cccc([N+](=O)[O-])c1	-3%	.	7	.	-26
CCCCn1c(N)c(C(=S)NC(=O)CC(C)C)c(=O)n(C)c1=O	70%	-34	.	.	-29

Some of these compounds in order of length of the SMILES, largest number first.
SMILES	Mtb H37Rv	YopH PTP inh	Mtb betalactam	RecA splice inh	Arbovirus anti	others
COc1cccc(NS(=O)(=O)c2ccc3[nH]cc(C(=O)NCCCOC(C)C)c(=O)c3c2)c1	0%	-37	41	-1.9	6
COc1cccc(NC(=O)C2CCN(S(=O)(=O)c3ccc4[nH]c(=O)ccc4c3)CC2)c1	.	.	12	-1.9	.
NC(=O)C1CCN(C(=O)c2ccc3nc(-c4ccccc4)c(-c4ccccc4)nc3c2)CC1	.	.	3	0.0	.
O=[N+]([O-])c1cnc(Nc2ccc(Cl)cn2)c([N+](=O)[O-])c1	.	.	99	11	.
N=c1sccn1CC(=O)Nc1ccc(Cl)c(S(=O)(=O)N2CCOCC2)c1	0%	1	-9	-1.4	-1
COc1ccc(NC(C)C(=O)N/N=C/c2c(O)ccc3ccccc23)cc1 (stereo not drawn)	.	.	12	0.4	.
O=C(Nc1cccc(O)c1)c1cc(-c2ccc3c(c2)OCO3)on1	.	.	16	1.6	.
CN(CC(=O)NCc1cccnc1)S(=O)(=O)c1ccc(F)cc1	.	.	-3	-2.5	.
COc1ccc(CCNC(=O)Cc2ccc3c(c2)OCO3)cc1OC	-13%	-45	?	-2.2	-9
O=C(CN1CCN(c2ccccn2)CC1)Nc1ccccc1Br	.	.	-2	5.0	.
Cc1cccc(-c2noc(-c3ccno3)n2)c1	-1%	.	-3	1.9	.
Cc1ccc(C(=O)N2CCOCC2)cc1Cl	-2%	-37	-5	-0.2	8

Going on with the list.
SMILES	Mtb H37Rv	YopH PTP inh	Mtb betalactam	RecA splice inh	Arbovirus anti	others
Cc1c(/C=N/O)c2ccccn2c1C=O	-6%	.	-4	-4.4	0
COP(=O)(OC)C(O)C(Cl)(Cl)Cl (stereo not drawn)	.	-14	6	-2.1	6
COc1ccc(-c2nnc(SCC(=O)NC(=O)NCc3ccccc3)o2)cc1	4%	-15	-6	0.9	6
Cc1cc(SCC(=O)OCC(=O)NC(C)c2ccccc2)c(C)cc1Br (stereo not drawn)	-3%	-38	16	3.0	5
O=C(NCCN1CCOCC1)c1ccc2c(c1)ncn2C1CCCC1	.	-3	1	3.8	10	Arbovirus anti repeat=7
CC(C)(C)NC(=O)C(c1ccccc1)N(C(=O)C1CSC(=O)C1)c1ccccc1 (stereo not drawn)	-5%	-32	0	-1.0	8
O=C(O)C(=O)/C(=C\c1cccc2ccccc12)c1ccc2ccccc2n1	2%	-11	51	-1.6	-22
COc1ccccc1NC(=O)Nc1nc(CC(=O)NCc2ccc(F)cc2)cs1	.	.	5	-2.2	.
COC(=O)C1=CN(Cc2ccc(OC)c(OC)c2)C=C(C(=O)OC)C1c1ccccc1F	.	.	3	-316	.
Cc1ccc(O)c(NC(=O)c2cc([N+](=O)[O-])ccc2Cl)c1	6%	.	12	2.2	13
COc1ccc(-c2csc3ncnc(N4CCN(c5ccccc5[N+](=O)[O-])CC4)c23)cc1	.	.	7	17	.
CC(NC(=O)C(=O)N1CCCCC1)C(c1cccs1)N1CCN(C)CC1 (stereo not drawn)	.	.	-2	1.0	.
CC1(C)CC(CCN(Cc2ccccc2)C(=O)c2ccco2)(c2ccccc2)CCO1 (stereo not drawn)	-5%	-3	0	.	16
O=C(CSc1nnc(CNC(=O)c2ccccc2F)o1)c1ccc(Cl)cc1	-4%	-17	2	4.0	0
